# Beta cell apopt – blocks beta cell apoptosis. INS-1E cytokine-induced death, ATP luminescence, 48 h; percent of positive-control rescue, neutral wells zero. 300,000 tested, 0.8% active. protection from apoptosis, % (concentration not given with the values). AID 435005;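 active = all replicates at 75% or more, or half of them and the mean; inconclusive = half reach 75% but not the mean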;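 note: 0% = cytokine-treated negative control wells and 100% = positive control rescue; higher means more ATP so stronger rescue from cytokine killing; wells of about 40 µL received 100 nL stock; the first replicate is given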
# LANA-H2B inh – blocks KSHV LANA binding to histone H2A/H2B; Q9QR71; cell-free LANA-H2A/H2B peptide, fluorescence polarization; inhibition, % (no concentration beside the values); 320,000 tested, 0.6% active; AID 2629; in the data active = inhibition mostly above about 10%, no sharp cut-off; inactive = mostly below about 6.7%;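 note: stock transfer was 7.5 nL into about 10 µL; 0% = median of vehicle wells and 100% = median of positive control wells; one replicate is shown; the record names a cut of 25% in any replicate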
# rRNA inh HTS – inhibitors of bacterial rRNA selective over humanized ribosomes; E. coli WT GFP vs humanized-ribosome RFP mutants, fluorescence, 24 h; active compounds read low; DMSO median 0, no signal -100; GFP signal change (wild-type ribosome), % (test concentration not listed); 350,000 tested, 1.6% active; AID 720706;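 active = significant combined selectivity score with lowered wild-type GFP, culture density cut under 30%, mutant RFP and density less affected; inactive = any of these conditions unmet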; note: one replicate is shown; some compounds called inactive have numbers as strong as hits
# Calb FLC – C. albicans growth modulation with fluconazole. C. albicans CaCi-2 (fluconazole-resistant clinical isolate) + fluconazole, Alamar Blue growth, 48 h. growth inhibition, % (no concentration beside the values). 300,000 tested, 0.57% active. AID 1979;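 active = most replicates above 75%; inconclusive = exactly half above 75%; inactive = most below 75%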;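 note: all wells also contain fluconazole at 8 µg/ml as a sub-toxic cotreatment; 0% = median of DMSO wells and 100% = median of geldanamycin control wells; wells of about 8 µL received 7.5 nL stock; the first replicate is given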
# T cruzi repl – T. cruzi replication inhibition; inhibition, % (no concentration beside the values); 300,000 tested, 1.4% active; T. cruzi beta-gal in NIH3T3, luminescence, 90 h;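 active = mean inhibition across valid replicates above about 55%, limit read from the data; inconclusive = mean below that limit but half or more replicates reach it; inactive = mean below it, under half of replicates reach it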;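 note: signal also drops with host cell toxicity which is not excluded here; 0% = plate median of DMSO wells and 100% = zero luminescence signal; higher percent means less beta-gal luminescence so fewer parasites; stock transfer was 50 nL into about 50 µL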
# B2AR ag – human beta-2 adrenergic receptor agonism by FAP; Am2.2-beta2AR cells, FAP receptor internalization, flow cytometry; reference of the scale not given here; response, % (no concentration beside the values); AID 504454; 340,000 tested, 0.43% active; P07550;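 active = response above a set limit, near 3 SD of response in nonfluorescent compounds, cut at about 42% in these data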;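 note: stock transfer was 100 nL into about 11 µL; a reference agonist was the positive control; negative values mostly stem from fluorescent compounds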
# Target sequence (P07550 whole entry, looked up): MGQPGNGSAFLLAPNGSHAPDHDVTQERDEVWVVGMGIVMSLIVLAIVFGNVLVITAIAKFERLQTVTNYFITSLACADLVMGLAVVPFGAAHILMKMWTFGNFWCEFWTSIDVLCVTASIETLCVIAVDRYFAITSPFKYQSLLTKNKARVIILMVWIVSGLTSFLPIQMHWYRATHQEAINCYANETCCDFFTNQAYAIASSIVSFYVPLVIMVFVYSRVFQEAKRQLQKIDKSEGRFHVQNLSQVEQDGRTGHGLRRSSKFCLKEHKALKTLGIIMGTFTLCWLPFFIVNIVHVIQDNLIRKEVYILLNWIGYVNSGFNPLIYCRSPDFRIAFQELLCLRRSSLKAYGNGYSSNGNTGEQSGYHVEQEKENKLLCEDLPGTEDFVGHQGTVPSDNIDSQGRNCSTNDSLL
# Bfl-1 A1 inh – inhibitors of the anti-apoptotic protein A1, read as caspase activation; AID 2462; caspase activation, % (test concentration not listed); 330,000 tested, 0.066% active; MEF A1-2A-BIM cells, Caspase-Glo 3/7 luminescence, 3 h; percent of clofoctol response, vehicle zero;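 active = over half of replicate activation scores above 10%, or exactly half above 10 with the replicate mean above 10; inconclusive = replicate mean below 10 yet half the replicates above 10; inactive = over half of replicates below 10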;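 note: wells of about 30 µL received 50 nL stock; many hits fall short of the cut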
# ALR inh – human ALR oxidase inhibition via reduced H2O2; P55789; purified ALR, DTT oxidation, H2O2 HRP-luminol luminescence; inhibition, % (no concentration beside the values); 290,000 tested, 3.8% active; AID 485317;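 active = mean and each replicate at 75% or more; inconclusive = only one of the two met; inactive = neither met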;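 note: stock transfer was 7.5 nL into about 7.5 µL; 0% = neutral wells and 100% = wells with inactivated enzyme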
# Target sequence (P55789 whole entry, looked up): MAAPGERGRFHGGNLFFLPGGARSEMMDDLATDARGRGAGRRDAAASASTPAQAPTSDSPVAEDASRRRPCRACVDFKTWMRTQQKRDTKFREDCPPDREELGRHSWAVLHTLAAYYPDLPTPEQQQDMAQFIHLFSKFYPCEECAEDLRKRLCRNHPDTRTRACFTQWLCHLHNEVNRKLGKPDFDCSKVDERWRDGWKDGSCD
# rRNA inh HTS OD600 – second read-out of rRNA inh HTS, no call of its own (marks repeat the call); OD600 change, %; measured here: OD600 growth;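 optical density of the mix in the first replicate; 0 = DMSO median and -100 = no signal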
# rRNA inh HTS RFP – recorded beside rRNA inh HTS, whose call it bears; RFP signal change, %; measured here: RFP humanized mutant strains;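 first replicate; 0 = DMSO median and -100 = no signal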
# Numbers without * were called inactive; ? = inconclusive; / = not tested or not shown. This is a subset; the hit share may differ from the screen's.
entry	Structure	Calb FLC	T cruzi repl	B2AR ag	Beta cell apopt	Bfl-1 A1 inh	rRNA inh HTS OD600	rRNA inh HTS	ALR inh	rRNA inh HTS RFP	LANA-H2B inh
1	Cc1ccc(-n2cccc2/C=N/n2cnnc2)cc1Cl	4	6	-3	-2	-0.1	/	/	-12	/	-0.4
2	Cc1ccc(S(=O)(=O)/N=c2\sccn2C)cc1	6	2	-2	/	-0.5	/	/	-3	/	0.6
3	Cn1nc(C(=O)NNC(=O)CCOc2ccc(C(C)(C)C)cc2)c2ccccc2c1=O	/	/	3	-11	-0.7	-5	2	/	1.6	-7.2
4	Clc1cccc(C2CCN(Cc3nc(CC4CC4)no3)C2)c1 (configuration not stated)	0	-4	-1	-10	-0.5	-68	-48	0	-11	-1.2
5	COC(=O)C1CCN(C(=O)COC(=O)C2CCN(S(=O)(=O)c3ccc4c(c3)OCCO4)CC2)CC1	16	-3	4	-2	-0.6	2	5	1	-2.2	0.0
6	Cc1nn(Cc2noc(C(=O)NCc3ccc(F)cc3)n2)c(C)c1Br	33	-3	-3	2	-0.7	10	2	-6	6.7	-1.3
7	CC(NC(=O)C(=O)N/N=C\c1ccc([N+](=O)[O-])cc1)c1ccccc1 (configuration not stated)	14	-1	-5	3	0.3	6	9	-16	-5.4	1.1
8	COc1ccc(Cc2nnc(N=Nc3c(O)[nH]c4ccc(Br)cc34)[nH]c2=O)cc1	25	-12	2	-1	-0.6	-11	-10	5	-2.5	0.2
9	COc1cc2c(cc1OC)CN(C(=S)Nc1ccc(OC(F)F)cc1)CC2	13	/	-1	-2	-1.4	/	/	/	/	-4.7
10	COc1ccc(N2CCN(C(=O)c3ccc(C)c(NC(=O)C4=C(C)OCCS4)c3)CC2)cc1	-9	20	-5	0	-0.5	-7	-4	54	-1.5	2.9
11	Cc1c(NC(=O)COC(=O)COc2ccc(Nc3ccccc3)cc2)c(=O)n(-c2ccccc2)n1C	/	-6	-1	-6	-0.3	/	/	99*	/	-4.2
12	Cc1ccc(NC(=S)NNC(=O)C2CC2c2ccc(C)cc2)cc1 (configuration not stated)	3	6	11	2	0.2	/	/	47	/	-0.3
13	Cc1nn(-c2ccccc2)c2nc(-c3ccco3)cc(C(=O)O)c12	1	-5	4	1	-0.4	/	/	97*	/	-1.6
14	CN(C)c1ccc(-c2nc3ccccc3n2C)cc1	-16	32	2	/	-8.4	/	/	91*	/	3.3
15	CCCCNC(=O)c1ccc(NS(=O)(=O)c2ccccc2)cc1	6	6	-3	3	-0.6	/	/	-2	/	-0.3
16	CC(C)Oc1ccc(NC(=O)c2ccncc2)cc1	5	-9	5	7	-1.3	/	/	/	/	1.8
17	COC(=O)c1ccc(C(=O)NC2CCCc3c2cnn3-c2ccccc2F)nc1 (configuration not stated)	-4	-30	-12	16	0.1	-4	-2	0	-0.6	-1.3
18	CCc1ccc(C(=O)N/N=C(\C)c2ccncc2)s1	-18	8	10	2	-0.7	-6	-4	-2	4.0	0.3
19	COc1ccccc1OCC(=O)Nc1cc(C)ccc1NC(=O)c1ccco1	5	-2	-9	-4	0.3	-14	-7	1	0.2	12
20	CCc1cccc2c(C(=O)COC(=O)c3ccc(O)cc3)c[nH]c12	-3	56*	10	0	2.0	-17	-17	3	-7.8	-6.6
21	O=C(c1ccc(OC2CCN(CCO)CC2)cc1)N1CCCC1	-6	-4	-14	/	0.1	/	/	-19	/	0.5
22	COc1ccccc1NC(=O)Cn1c2ccc(F)cc2c2nc3n(c(=O)c21)CCS3	8	15	-12	50	0.6	6	7	-1	1.7	-7.5
23	COc1ccc(NC(=O)Nc2cccc(OC)c2)cc1	-10	3	-31	2	0.1	/	/	-9	/	1.3
24	COCCN(C(=S)Nc1cc(C)ccc1C)C(C)c1cccnc1 (configuration not stated)	-9	-2	1	-15	-0.2	9	15	-11	-7.0	0.2
25	COc1ccccc1CCNC(=O)C1CCN(C(=O)/C=C/c2ccccc2)CC1	6	-3	-8	-3	-0.4	-11	-1	-4	3.5	1.2
26	C/C(=N\NC(=O)CCc1ccc(S(=O)(=O)N2CCOCC2)cc1)c1ccc(OC(F)F)cc1	-14	16	-2	2	-1.1	6	16	/	-1.9	/
27	Cc1c(Cl)cnc(NC(=O)COC(=O)CCS(=O)(=O)c2ccccc2)c1Cl	-9	-11	-3	-10	0.2	/	/	-45	/	4.5
28	Cc1ccc2nc(NC(=O)/C=C/c3ccc4c(c3)OCO4)sc2c1	-6	-13	27	84*	-0.7	/	/	-3	/	-0.9
29	Cc1noc(C)c1C(=O)Nc1sc2c(c1C(N)=O)CCCCC2	7	6	-19	3	0.4	10	12	10	6.0	-8.0
30	CCOc1ccc(CNC(=O)Cn2nc(C)c3c(C)n(-c4ccc(C)cc4)nc3c2=O)cc1	-1	13	-2	2	-0.2	-1	0	1	-1.0	2.5
31	O=C(NCc1ccccn1)Nc1ccc(F)cc1	7	-1	2	3	0.3	/	/	-3	/	3.3
32	Cc1ccsc1C(=O)N(CC(C)C)c1c(N)n(Cc2ccccc2)c(=O)[nH]c1=O	4	-3	-3	-1	0.9	7	16	1	2.9	-1.1
33	COc1ccc(S(=O)(=O)NNC(=O)Nc2ccc(C)cc2C)c(OC)c1	-4	-11	-5	-5	-0.5	-4	3	-16	-0.5	-1.9
34	CCOC(=O)Cn1nc(-c2ccccc2)nc1-c1ccccc1	8	0	5	3	-1.1	/	/	/	/	-4.1
35	O=C(c1cccs1)N1CCOCC1	-4	-13	5	-2	0.9	/	/	-19	/	-2.8
36	Cc1cccc(N2CCN(C3=NC(=O)C(=C4CCCCC4)S3)CC2)c1	15	21	8	-2	-0.1	/	/	7	/	2.7
37	Cc1cc(=O)oc2cc(OCC(=O)NCCN3CCOCC3)c(Cl)cc12	-7	5	2	2	-1.3	2	0	-1	0.9	6.6
38	CCOc1ccc(S(=O)(=O)Nc2nc3ccccc3nc2Nc2ccc(N3CCOCC3)cc2)cc1	-4	39	-2	7	-0.2	/	/	93*	/	1.9
39	Cc1ccc2nc(Cl)c(/C=N/Nc3nc(C)cc(C)n3)c(=O)n2c1	-1	-20	6	-10	0.2	7	9	/	1.4	/
40	Cc1ccc(CN(CCO)CCO)cc1	1	-4	-1	-3	0.3	19	25	-1	2.5	-1.7
41	CCc1n[nH]c(=S)n1/N=C/c1c(O)ccc2ccccc12	18	-11	14	-6	-0.3	-3	-10	-8	-4.2	1.0
42	COc1ccc(S(=O)(=O)NCC(=O)NCc2cc(=O)n(C)c(=O)n2C)cc1C	/	3	2	-2	0.7	8	0	-1	-2.0	2.9
43	Oc1ccccc1Oc1c(F)c(F)nc(N2CCCC2)c1F	21	-16	0	-1	1.3	-23	-18	18	-2.9	-4.3
44	COc1cc(/C=N/Nc2snc(SC)c2C#N)cc(OC)c1OC	-1	-10	1	35	0.0	/	/	-1	/	-3.2
45	CCCCCn1c(SCC(=O)OCC)nc2cc(C(=O)NCc3ccco3)ccc2c1=O	-4	4	6	6	0.2	/	/	-5	/	-1.6
46	CC(C)NC(=O)CSc1nc(N)c(NC(=O)c2ccco2)c(=O)[nH]1	2	-14	6	-2	-0.1	8	11	-3	2.8	-6.7
47	CC1=NNC(=O)C(CC(=O)Nc2ccc(Cl)c(Cl)c2)C1 (configuration not stated)	2	4	4	-2	0.8	/	/	1	/	1.8
48	CCOC(=O)CC(C)(C)/C(C)=N/Nc1ccc([N+](=O)[O-])cc1[N+](=O)[O-]	23	14	4	17	-0.5	6	12	-7	0.1	-3.3
49	O=C(Nc1ccc(N2CCOCC2)cc1)c1ccncc1	24	0	-6	-1	0.2	/	/	-6	/	-0.8
50	CCN(CC)CCNC(=S)Nc1ccc(Cl)cc1	4	12	-1	-4	0.3	/	/	-11	/	0.8

# The list goes on.
entry	Structure	Calb FLC	T cruzi repl	B2AR ag	Beta cell apopt	Bfl-1 A1 inh	rRNA inh HTS OD600	rRNA inh HTS	ALR inh	rRNA inh HTS RFP	LANA-H2B inh
51	Cc1cc(C)cc(NC(=O)C(OC(=O)Cn2cnc3c2c(=O)n(C)c(=O)n3C)c2ccccc2)c1 (configuration not stated)	-13	-10	1	-2	0.1	6	5	-2	-2.3	3.5
52	Cc1sc2ncnc(SCC(=O)NCC(C)C)c2c1C	-3	-10	1	3	?	/	/	25	/	2.0
53	COC(=O)c1ccc(NC(=O)COC(=O)CSc2nc(C)cc(C)n2)cc1	-16	-7	-3	0	0.3	/	/	-8	/	3.1
54	CCOc1cccc2cc(C(=O)NCCC3=CCCCC3)c(=O)oc12	-4	-11	-8	-2	-0.4	-9	-6	-10	0.7	0.0
55	Fc1ccc(CNC(=S)NC2CCCC2)cc1	-3	-19	7	2	-0.6	0	3	-6	-1.2	-0.2
56	Nc1cc(C(=O)OCC(=O)Nc2cccc(S(=O)(=O)N3CCOCC3)c2)ccc1Cl	/	/	5	0	0.0	-13	3	10	1.3	-3.7
57	CCOc1ccc(S(=O)(=O)N(CC(=O)Nc2cccnc2)c2ccc(F)cc2)cc1	5	12	-5	4	0.2	-4	-1	-5	2.7	-1.1
58	O=C(COc1ccc2ccccc2c1)Nc1ccc(Cc2ccncc2)cc1	13	11	13	/	-0.8	12	-2	-6	3.0	1.4
59	NNC(=O)CCCNc1ncc(C(F)(F)F)cc1Cl	-2	-8	-5	2	-0.3	3	8	8	3.9	-0.7
60	CC1CCCC(NC(=O)CSc2ccc(F)cc2)C1C (configuration not stated)	0	-1	-3	3	-0.6	9	8	-9	2.7	-1.9
61	COc1ccc(C(=O)NC2CCc3ccccc32)cc1OC1CCN(C(C)C)CC1 (configuration not stated)	-1	14	0	2	0.5	9	13	0	2.8	1.7
62	CC1CCCC(NC(=O)CSC2CCCCC2)C1C (configuration not stated)	7	1	14	0	-0.4	-35	-38	36	-5.8	-1.1
63	O=C(Nc1ccccc1F)c1ccc(OCc2ccccc2)cc1	-1	-12	0	-9	-4.4	10	7	-2	-3.7	-2.5
64	COc1cc(CN2CCNC(=O)C2CC(=O)NCCC2=CCCCC2)cc(OC)c1 (configuration not stated)	-10	9	4	-7	-0.1	6	2	-8	0.2	1.6
65	Cc1coc2cc3oc(=O)c(CC(=O)N4C[C@H]5C[C@@H](C4)c4cccc(=O)n4C5)c(C)c3cc12	3	6	-8	1	-0.3	/	/	/	/	-1.2
66	CC(=O)c1ccc(NC(=O)C2CCCO2)cc1 (configuration not stated)	0	-4	-6	-9	0.8	12	24	-4	0.0	4.8
67	COc1ccc(CC(=O)NCCCCc2ccccc2)cc1OC	10	4	4	-1	0.9	-6	-15	-15	3.0	1.1
68	Cc1cc(OCn2ccc(C(=O)O)n2)ccc1Cl	37	-10	1	-2	0.1	/	/	-14	/	3.2
69	Cc1ccc(NC(=S)NC2CC3CCCC(C2)N3Cc2ccco2)cc1 (configuration not stated)	-16	-10	-3	-18	0.9	3	6	-2	-4.9	1.7

# Compound activity (PubChem)
